Bioassay records: PubChem BioAssay, several laboratories
MT1-MMP act inh – blocks activation of human MT1-MMP; P50281; HT1080 RFP-PRO-GFP cells, GFP/RFP ratio fluorescence, overnight; percent of plate control window, DMSO zero; GFP/RFP ratio change, % at 20 µM; 0.061% of 360,000 active;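 active = GFP/RFP ratio change of at least 30% with cell ATP level not reduced by more than half and red fluorescence within 50% of control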; note: strong numbers were not always called active
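Assay system: HT1080 RFP-PRO-GFP cells. Benchmarks: DMSO vehicle wells and RFP-L50D-GFP reporter cell wells. Times: overnight cell settling, then overnight compound exposure, 37 °C, 5% CO2. Compound: 20 µM single dose, 1% DMSO. Read-out basis: GFP/RFP fluorescence ratio.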
HIV Env fusion – inhibitors of HIV Env-mediated cell fusion. HeLa-JRFL Env/CEM21 cell fusion, luciferase. inhibition, % at 12.3 µM. 1.1% of 360,000 active. AID 651610;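 active = mean replicate inhibition score of at least 50 and every replicate individually at or above 50; inconclusive = only one of the two criteria met; inactive = mean below 50 and not all replicates reaching 50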;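 note: 0% = plate neutral controls and 100% = maraviroc near 300 nM; one replicate is shown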
Yeast UUG start – alters start codon recognition fidelity in yeast; S. cerevisiae UUG-firefly luciferase reporter, luminescence/redox ratio; 0.13% of 350,000 active; AID 602363; activity score, % at 18.7 µM;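 active = replicate mean at a twofold rise or more, about +100% in these data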;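 note: firefly luciferase made from a UUG start codon reports start codon fidelity; reporter light over untreated wells divided by growth signal over untreated wells; some hits fall short of that in this replicate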
CSC inhib – blocks cancer stem cells | inhibition, % at 7.5 µM | AID 2717 | 1.1% of 300,000 active | cancer stem cell-like cells viability, luminescence;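 active = mean at 75% or more and at least half the replicates too; inconclusive = mean and replicates disagree; tested in HMLE shEcad cells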;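 note: 0% = median of negative and 100% = median of positive control wells; the first replicate is given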
eIF4H inh – inhibitors of RNA binding by human eIF4H; eIF4H fluorescence polarization binding assay; inhibition, % at 35 µM; AID 2012; Q15056; 0.94% of 290,000 active;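 active = 50% or more with normal probe brightness, or confirmed in later tests; inconclusive = above 50% with abnormal brightness, or retests that disagree; inactive = below 50% or failed in later tests; about a fifth of its hits are not listed in these tables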;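 note: calls also rest on retests at 20 µM and on dose response follow-up; 0% = protein and probe with vehicle and 100% = probe without protein; strong numbers were not always called active; many hits fall short of the cut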
Rce1 inh – blocks yeast Ras-converting enzyme; AID 2563; calls only; 0.27% of 290,000 active; Q03530; yeast membranes, quenched prenylated peptide cleavage fluorescence;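 active = fall in fluorescence gain of 50% or more versus controls, with final raw signal at or below 3038400; inconclusive = same 50% fall but final raw signal above 3038400; inactive = fall in fluorescence gain under 50%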;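 note: plate controls were neutral control wells for no effect and wells lacking membranes for full effect; tested at 10 µM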
Target sequence (Q03530 whole entry, looked up): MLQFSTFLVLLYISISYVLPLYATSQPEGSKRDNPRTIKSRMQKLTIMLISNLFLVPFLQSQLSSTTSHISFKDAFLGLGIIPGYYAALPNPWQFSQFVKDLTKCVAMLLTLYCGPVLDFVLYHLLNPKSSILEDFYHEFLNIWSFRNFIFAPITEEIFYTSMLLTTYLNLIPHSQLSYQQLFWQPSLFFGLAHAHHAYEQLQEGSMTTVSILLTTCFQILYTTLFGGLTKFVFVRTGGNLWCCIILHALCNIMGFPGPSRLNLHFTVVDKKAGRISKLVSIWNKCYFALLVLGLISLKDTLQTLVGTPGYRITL
PABP polyA inh – PABP-poly(A) binding inhibition; PABP-poly(A) RNA binding, fluorescence polarization; inhibition, % at 35 µM; 1% of 290,000 active;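 active = 50% or more with normal probe brightness, or confirmed in later tests; inconclusive = above 50% with abnormal brightness, or retests that disagree; inactive = below 50% or failed in later tests; about a fifth of its hits are not listed in these tables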;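 note: calls also rest on retests at 20 µM and on dose response follow-up; controls were probe without protein and protein plus probe with vehicle; some compounds called inactive have numbers as strong as hits; many hits fall short of the cut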
MT1-MMP act inh RFP – further read-out of MT1-MMP act inh, marked with its call; RFP signal change, %; measured here: RFP expression control read;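 0 = vehicle wells; hits needed this value within 50% of zero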
* = called active by the depositor; i = inactive; ? = inconclusive; . = no result given. Not all compounds are listed; count on the stated rates, not on these rows.

No.	compound	MT1-MMP act inh	MT1-MMP act inh RFP	HIV Env fusion	Yeast UUG start
1	O=C(O)c1ccccc1-c1ccccc1C(=O)NCc1ccco1	-1	6	-59	-23
2	O=S(=O)(c1ccc(Cl)s1)N1CCc2ccccc2C1	2	1	-3	0
3	O=c1cc2c(c(-c3ccccc3)n1Cc1ccccc1)[C@@H](CCO)NC2	4	9	-1	-15
4	CCOc1ccccc1C(=O)NC(C(=O)OCC(=O)NNC(=O)c1cccs1)C(C)C (stereo unspecified)	1	4	-2	-4
5	COc1cccc(C(=O)Nc2c(C)n[nH]c2C)c1	0	0	-27	-1
6	O=C(CCN1C(=O)/C(=C/c2ccc(F)cc2)SC1=S)N[C@@H](CO)Cc1ccccc1	-3	-4	8	-11
7	COc1ccc(NC(=O)COC(=O)c2ccc(S(=O)(=O)N3CC(C)CC(C)C3)cc2)cc1OC (stereo unspecified)	0	3	-12	-4
8	CCN(CC)S(=O)(=O)c1ccc(N2CC(C(=O)NCCc3ccc(Cl)cc3)CC2=O)cc1 (stereo unspecified)	4	0	22	-14
9	Cc1cccn(Cc2c(F)cccc2Cl)c1=O	-6	0	-15	-1
10	Cc1ccc(CN2C(=O)C(=O)c3cc(C)ccc32)cc1	5	4	-85	-14
11	Cc1csc(NC(=O)CSc2nc3ccccc3c3c2CCCC3)n1	-7	-4	-10	.
12	CCOc1ccc(NC(=O)CN(C)C(=O)CCCOc2ccc(Br)cc2)cc1OCC	7	-5	.	.

No.	CSC inhib	eIF4H inh	Rce1 inh	PABP polyA inh
1	-5	7	i	-4
2	-12	-10	i	5
3	.	.	.	.
4	.	.	.	.
5	-12	-10	i	-13
6	5	-10	i	1
7	.	.	.	.
8	1	.	.	.
9	-9	2	i	-2
10	31	.	.	.
11	28	3	i	-8
12	-9	.	i	.

Remaining list, next part.
No.	compound	MT1-MMP act inh	MT1-MMP act inh RFP	HIV Env fusion	Yeast UUG start
13	CCC(=O)n1nc(-c2ccc(OC)cc2)nc1NCc1cccs1	4	1	-13	.
14	Cc1cccc(C)c1NC(=O)CS(=O)CC(=O)Nc1ccc(N2CCOCC2)cc1 (stereo unspecified)	0	3	4	-43
15	CC(C(=O)Nc1ccncc1)(c1ccccc1)c1ccccc1	-1	-2	-24	.
16	CCc1nc2c(OC)cccn2c1N(C)C(=O)c1ccccc1F	-3	7	-6	-18
17	Cc1nc(CN2C(=O)C3(CCC3)ON=C2c2cccc(Cl)c2)cs1	4	0	-2	-16
18	O=C(CCc1nnc(Cc2ccc(-c3ccccc3)cc2)o1)NCC1CC1	.	.	6	.
19	Cc1c(Br)cccc1NC(=O)C1(C)CCN1Cc1ccc(OC(C)C)cc1 (stereo unspecified)	2	-4	1	-1
20	O=C(COC(=O)C1CC2CCCC(C1)C2=O)Nc1ccc(F)c(Cl)c1 (stereo unspecified)	3	2	.	-6
21	CCOC(=O)c1ccc(NC(=O)NCCc2ccccc2OC)cc1	18	-1	22	.
22	Cc1c(-c2ccccc2)nc2ccccc2c1C(=O)NCc1cccs1	3	-3	-136	.
23	O=C(Nc1ccc2c(c1)OCO2)C1CCN(S(=O)(=O)Cc2ccccc2)CC1	-3	-4	.	-5
24	O=C(CSc1nnc2ccccn12)NC(=O)c1ccccc1	3	3	.	38

No.	CSC inhib	eIF4H inh	Rce1 inh	PABP polyA inh
13	.	13	i	8
14	-12	0	i	-3
15	.	7	i	-7
16	.	.	.	.
17	.	.	.	.
18	-6	-5	i	0
19	.	.	.	.
20	-6	.	.	.
21	-2	-4	i	-3
22	-15	-1	i	7
23	19	-4	.	5
24	-23	.	.	.

Some values from the results shown.
Result for entry 21 under HIV Env fusion: 22
Result for entry 22 under eIF4H inh: -1

Remaining list, next part
No.	compound	MT1-MMP act inh	MT1-MMP act inh RFP	HIV Env fusion	Yeast UUG start
25	O=C(Nc1ccccc1C1CC1)c1cccs1	-2	2	.	-7
26	COc1ccc(C(C)(NC(C)=O)c2nc(-c3ccc(F)c(Cl)c3)cs2)cc1 (stereo unspecified)	3	4	7	19
27	Cc1cc(C)nc(SCC2COc3ccccc3O2)n1 (stereo unspecified)	5	4	.	-14
28	Cc1cccc(N2CCN(C(=O)C34CC5CC(CC(C5)C3)C4)CC2)c1C	-6	-6	29	7
29	COc1cc(C(=S)N2CCOCC2)ccc1OC(=O)/C=C/c1ccco1	1	2	9	.
30	CC(C)(CNCC(O)c1ccccc1)N1CCOCC1 (stereo unspecified)	2	-4	.	-1
31	CCNC(=S)N/N=C/c1sccc1C	.	.	.	.
32	O=C(CNC(=O)c1cccs1)OCC(=O)c1ccc(Cl)cc1	1	6	16	-14
33	COc1ccc(OCC(=O)Nc2ccc3c(c2)C(=O)NC3=O)cc1	-1	1	4	-3
34	CCCCOc1ccc(-c2nc(/C=N/c3nccs3)c(O)o2)cc1	2	0	3	-14
35	Fc1ccc(CNC(=S)Nc2ccccc2F)cc1	13	-3	11	-11
36	Cc1cccc(N2CCN(C(=O)c3cccc(S(=O)(=O)N4CCCCC4)c3)CC2)c1C	-5	-13	64*	2

No.	CSC inhib	eIF4H inh	Rce1 inh	PABP polyA inh
25	.	-1	i	-3
26	.	.	.	.
27	.	8	i	-6
28	31	4	i	-3
29	-5	38	i	-8
30	.	-6	i	-7
31	-4	-4	i	2
32	-1	-7	.	9
33	-11	-5	i	6
34	.	-5	i	-12
35	-14	4	i	-3
36	43	.	.	.

Next part
No.	compound	MT1-MMP act inh	MT1-MMP act inh RFP	HIV Env fusion	Yeast UUG start
37	CCc1ccc(CN(C(=O)c2oc3ccccc3c2C)C2CCS(=O)(=O)C2)cc1 (stereo unspecified)	-5	-4	-6	1
38	COc1cc(C(c2sc3ncnn3c2O)N2CCN(c3ccccc3F)CC2)cc(OC)c1OC (stereo unspecified)	-1	1	.	16
39	COC(=O)CC(c1ccc(C#N)cc1)n1c(C)ccc1C (stereo unspecified)	-6	-2	-14	-4
40	CCOC(=O)c1[nH]c2ccccc2c1NC(=O)c1cc(OC)c(OC)c(OC)c1	7	1	.	-16
41	Cc1cccc(NC(=O)C2CCCN(C(=O)Nc3ccc(F)cc3)C2)c1C (stereo unspecified)	1	-2	-7	-22
42	CCOC(=O)N1CCN(C(=O)COc2ccc(S(=O)(=O)NCc3ccccc3)cc2)CC1	6	0	27	3
43	O=S(=O)(c1ccc(F)c(F)c1)N1CCN(S(=O)(=O)c2cccs2)CC1	-1	1	-9	-13
44	CCOC(=O)c1cn(CC)c2cc(N3CCCCC3)c(F)cc2c1=O	4	3	-10	-14
45	Cc1nc(NCCN2CCOCC2)c2nnn(Cc3c(F)cccc3Cl)c2n1	11	-2	27	-12
46	CC(C)OC(=O)CSc1nnc(C2CCCCC2)n1N	0	0	0	-9
47	CCSc1nc(N)nc2c1ncn2C1OC(CO)C(O)C1O (stereo unspecified)	-3	1	18	-12
48	O/N=C1\CCc2cc(Cl)ccc21	-4	-1	.	-17

No.	CSC inhib	eIF4H inh	Rce1 inh	PABP polyA inh
37	.	-4	i	-8
38	-1	-4	i	5
39	6	-6	i	-5
40	-9	.	i	.
41	.	-14	i	-8
42	-1	-8	i	2
43	-9	-14	i	-2
44	-5	.	i	.
45	-2	-8	i	-10
46	-14	-2	i	3
47	.	.	.	.
48	-19	3	i	-7

Ordered by value in HIV Env fusion (ascending): four from the list above.
no.	SMILES	MT1-MMP act inh	MT1-MMP act inh RFP	HIV Env fusion	Yeast UUG start	Rce1 inh
5	COc1cccc(C(=O)Nc2c(C)n[nH]c2C)c1	0	0	-27	-1	i
37	CCc1ccc(CN(C(=O)c2oc3ccccc3c2C)C2CCS(=O)(=O)C2)cc1 (stereo unspecified)	-5	-4	-6	1	i
2	O=S(=O)(c1ccc(Cl)s1)N1CCc2ccccc2C1	2	1	-3	0	i
36	Cc1cccc(N2CCN(C(=O)c3cccc(S(=O)(=O)N4CCCCC4)c3)CC2)c1C	-5	-13	64*	2	.

Other structures
No.	compound	MT1-MMP act inh	MT1-MMP act inh RFP	HIV Env fusion	Yeast UUG start
49	CSc1cccc(-n2cc(-c3ccc4c(c3)OCO4)[nH]c2=O)c1	-10	-15	.	-13
50	Cc1ccc(C(=O)N2CCCC(c3nc4c(nnn4Cc4ccccc4)c(=O)[nH]3)C2)cc1 (stereo unspecified)	0	1	3	.
51	CCOc1ccc(-c2nc(CSCC(=O)NCCN3CCOCC3)c(C)o2)cc1	4	-3	.	.
52	C=CCN1C(=O)CS/C1=C(\C#N)S(=O)(=O)c1ccc(C)cc1	38	78	.	-16
53	NC(=O)COC(=O)c1sc2cc(F)ccc2c1Cl	-1	2	-59	-8
54	CCCc1nnc(NC(=O)c2c(O)c3cccc4c3n(c2=O)CC4)s1	.	.	.	.
55	O=C(CSc1ccc2ccccc2n1)NCCCN1CCCC1=O	1	2	.	1
56	O=C(NNC(=O)C1CCN(S(=O)(=O)c2ccc(Cl)cc2)CC1)c1ccccc1	3	6	.	0
57	CCc1ccc([C@@H]2C[C@H]3[C@@H](CN2S(=O)(=O)c2ccc(C)cc2)C(=O)C[C@@H](c2cccc(Cl)c2)N3S(=O)(=O)c2ccc(C)cc2)cc1	-6	-5	-1	-22
58	O=C(CN1CCOCC1)Nc1nc(-c2ccccc2Cl)cs1	0	-1	11	-8
59	COc1ccc(C(C)(NC(C)=O)c2nc(-c3cccc(F)c3)cs2)cc1 (stereo unspecified)	3	2	?	-13
60	O=C(Cn1ncc(Cl)c(Cl)c1=O)N1CCOCC1	1	1	-62	.

No.	CSC inhib	eIF4H inh	Rce1 inh	PABP polyA inh
49	53	-2	i	-11
50	-9	0	i	0
51	9	-6	i	-6
52	-9	12	i	12
53	-11	-4	i	-8
54	-22	4	i	-3
55	-21	.	.	.
56	-17	-8	i	2
57	.	.	.	.
58	-11	5	i	0
59	.	.	.	.
60	71	-2	i	-3

Carrying on:
No.	compound	MT1-MMP act inh	MT1-MMP act inh RFP	HIV Env fusion	Yeast UUG start
61	Cc1cc(NC(=O)CSc2nnc(-c3ccccc3)o2)no1	5	5	4	.
62	COc1ccc(C(=O)NCCCn2ccnc2)cc1	3	2	-98	0
63	O=C1CCCc2nn(-c3ccccc3)c(-c3ccncc3)c21	4	-1	.	-21
64	CCOc1ccc(-c2nc(CSCC(=O)NCCCN3CCCC3=O)c(C)o2)cc1	1	1	9	8
65	Cc1ccccc1OCCCC(=O)Nc1ccc(N2CCOCC2)cc1	7	0	1	-19
66	CC(C)(C)n1ncc2c(=O)n(CC(=O)N3CCCC3)cnc21	1	1	17	.
67	O=[N+]([O-])c1cccc(COc2ccc(CN3CCCCC3)cc2)c1	0	0	-43	-2
68	O=C(CSc1ncccn1)N1CCCc2ccccc21	-2	1	-3	.
69	COc1ccc(C)cc1NC(=O)NC1CC(=O)N(c2ccc3c(c2)OCCO3)C1 (stereo unspecified)	-3	-6	11	-34
70	CCOC(=O)c1cc(-c2ccccc2)sc1NC(=O)C(C)C	-5	-1	13	.
71	CC(C)c1nnc(SCC(=O)NC(C)(C)C)n1C	.	.	-9	.
72	CC(C)Cc1nc(SCC(=O)NCC2CCCO2)c2c(=O)n(C)c(=O)n(C)c2n1 (stereo unspecified)	1	2	1	11

No.	CSC inhib	eIF4H inh	Rce1 inh	PABP polyA inh
61	-13	3	i	10
62	-1	8	i	-4
63	-5	-4	i	-1
64	-10	.	i	.
65	10	-11	i	-3
66	0	-10	i	-15
67	.	.	.	.
68	2	2	i	15
69	.	.	.	.
70	16	2	i	-1
71	7	-7	i	2
72	-6	-5	i	14
